Compound activity (PubChem)
MARV entry inh = blocks Marburg virus binding to or entry into cells; Potency, µM (titrated, usually from 37.8 µM), inactives show at the highest dose activity change, negative = inhibition, usual class: inhibitors; Marburg virus pseudotyped entry inhibition, cell reporter; control for the full effect not named in the record; about a third of the inactives were read at about 46 µM; AID 540276; 1.8% of 300,000 active; active = well fitted inhibition curve with a large enough effect; inconclusive = small, poorly fitted or top-dose-only effect, or effect the other way; inactive = flat fitted curve, though single readings scatter; tested in HEK293 cells; about a fifth of its hits are not listed in these tables; note: % is set by controls: 0 for no effect and ±100 for the full control effect; luciferase read-out
NS1 inh = inhibitors of influenza NS1 protein function; Potency, µM (highest dose often 46.1 µM), inactives show top-dose activity, positive = more growth; 0.4% of 270,000 active; S. cerevisiae slowed by influenza A NS1, growth recovery by OD600; AID 2326; active means well fitted rising curve with a large enough effect; inconclusive means small, poorly fitted or top-dose-only effect; inactive means no such curve, though single readings can be large or run the other way; note: nearly all actives have a fitted effect of over 50% in size
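Growth recovery, yeast-based: influenza A NS1 expressed in S. cerevisiae causes slow growth, and suppressors are detected by OD600. The parent strain without NS1 is used as positive control.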
RE007 growth inh = less growth of the S. pombe RE007 Vpr strain | S. pombe RE007 Vpr strain, BacTiter-Glo ATP luminescence, 24 h; control for the full effect not named in the record | Potency, µM (series often up to 92.2 µM), for inactives: at the highest dose activity change, negative = less growth | 0.21% of 360,000 active | AID 651644; active = well fitted falling curve with a large enough effect; inconclusive = small, poorly fitted or top-dose-only effect; inactive = no such curve, though single readings can be large or run the other way;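 note: % is set by controls: 0 for no effect and ±100 for the full control effect; nearly all actives have a fitted effect of over 50% in size; the assay follows cell death caused by Vpr and the record does not say whether a fall means rescue or toxicity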
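Fission yeast RE007 carrying one integrated HIV-1 vpr copy, seeded at OD 0.01 in PMG+AL medium with 23 nL pinned compound. Grown 24 h at 30 degrees; viability read by BacTiter-Glo luminescence after 5 min.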
SARS PLP yeast = SARS-CoV PLP inhibition in yeast; S. cerevisiae expressing SARS-CoV PLpro, growth rescue; control for the full effect not named in the record; 0.19% of 330,000 active; Potency, µM (titrated, usually from 32.9 µM), inactives show at the top dose activity, positive = growth rescue; active means well fitted rising curve with a large enough effect; inconclusive means small, poorly fitted or top-dose-only effect; inactive means no such curve, though single readings can be large or run the other way; note: 0% is about no effect; nearly all actives have a fitted effect of over 55% in size; growth read by luminescence after 48 h
Cruzain Triton = blocks cruzain activity in presence of Triton detergent | 0.43% of 200,000 active | Potency, µM, inactives show max response, negative = inhibition, usual class: inhibitors | purified cruzain, Z-FR-AMC fluorescence, 0.01% Triton;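 note: plate controls were neutral wells for no effect and buffer without enzyme for full effect; nearly all actives have a fitted effect of over 40% in size; top concentration of the series not given in the record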
Target sequence (P25779 123-467 limits assumed): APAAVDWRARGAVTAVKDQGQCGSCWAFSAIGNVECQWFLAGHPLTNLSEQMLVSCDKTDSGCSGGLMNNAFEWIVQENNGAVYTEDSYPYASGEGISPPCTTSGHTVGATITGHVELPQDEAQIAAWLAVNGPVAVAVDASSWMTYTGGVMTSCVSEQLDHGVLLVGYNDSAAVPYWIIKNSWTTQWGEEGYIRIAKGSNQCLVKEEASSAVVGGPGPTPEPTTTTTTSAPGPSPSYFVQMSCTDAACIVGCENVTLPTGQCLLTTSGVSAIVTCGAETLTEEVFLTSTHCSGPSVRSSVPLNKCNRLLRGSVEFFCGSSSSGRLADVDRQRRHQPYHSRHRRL
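Purified cruzain (1.5 nM final) was preincubated with compounds for 15 min at room temperature in 100 mM sodium acetate pH 5.5, 5 mM DTT, 0.01% Triton X-100. Reaction started with 2 uM Z-FR-AMC; AMC fluorescence change over 60 s gave activity.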
LASV entry inh = blocks Lassa virus binding to or entry into cells | 1.2% of 300,000 active | Potency, µM (top dose mostly 37.9 µM), inactives show at the top dose activity change, negative = inhibition, most hits filed as inhibitors | AID 540256 | Lassa virus pseudotype entry inhibition, cell reporter; control for the full effect not named in the record; active means well fitted inhibition curve with a large enough effect; inconclusive means small, poorly fitted or top-dose-only effect, or effect the other way; inactive means flat fitted curve, though single readings scatter; tested in HEK293 cells; note: % is set by controls: 0 for no effect and ±100 for the full control effect; nearly all actives have a fitted effect of over 50% in size; luciferase read-out
Cruzain noTriton = cruzain (T. cruzi) inhibition without detergent | 2.3% of 200,000 active | P25779 | AID 1476 | purified cruzain, Z-FR-AMC fluorescence, no detergent | Potency, µM, without a hit: max response, negative = inhibition, usual class: inhibitors;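 note: plate controls were enzyme without inhibitor for no effect and buffer without enzyme for full effect; nearly all actives have a fitted effect of over 40% in size; top concentration of the series not given in the record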
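Detergent-free condition (0.00005% Triton X-100) in acetate buffer pH 5.5 with DTT. 1.5 nM enzyme and compound were pre-mixed 15 min, then 2 uM Z-FR-AMC substrate added; reaction progress from fluorescence change between first and third reads (60 s).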
StopGo reporter = lowers the luciferase signal of an FMDV 2A StopGo reporter | human cells with a luciferase reporter of 2A StopGo recoding; control for the full effect not named in the record | 1.2% of 410,000 active | Potency, µM (highest dose often 57.9 µM), for inactives: top-dose signal change, negative = less light; active = well fitted falling curve with a large enough effect; inconclusive = small, poorly fitted or top-dose-only effect; inactive = no such curve, though single readings can be large or run the other way; tested in HEK293T cells; note: % is set by controls: 0 for no effect and ±100 for the full control effect; nearly all actives have a fitted effect of over 45% in size; luciferase light after 4 h
Active calls of the source: *; ? = inconclusive; / = no result given; & = joins results of further samples; [ ] = remark or other dose. Unless noted, calls come from the whole dose curve; as a rule, active = well fitted curve in the direction sought with a large enough effect; inconclusive = small, poorly fitted or top-dose-only effect, or another doubt; inactive = no such curve, though single readings can be large; an effect the other way counts as inactive or inconclusive. Potency is the fitted concentration of half-maximal effect.

No. | mol | MARV entry inh | NS1 inh | RE007 growth inh | SARS PLP yeast | Cruzain Triton | LASV entry inh | Cruzain noTriton | StopGo reporter
1 | Cc1ccc(S(=O)(=O)CCC(=O)Nc2ccc3nc(C)sc3c2)cc1 | -6% | 3% | 0% | -6% | -15% | -19% | 0% | -12%
2 | Cc1ccc(NS(=O)(=O)c2ccc(NC(=O)c3ccc(-c4ccccc4)cc3)cc2)c(C)c1 | ? | / | -12% | / | / | -27% | / | -29%
3 | CCOC(=O)c1ccc(N=C(c2ccccc2)c2c(O)n(C)c(=O)n(C)c2=O)cc1 | -16%[14.2 µM] | 1% | 2% | 2% | / | 7% | / | ?
4 | CN(C)S(=O)(=O)c1ccc(C(=O)Nc2nc(-c3cc4ccccc4o3)cs2)cc1 | ? | 5% | 10% | 1% | -7.0% | ? | ? | ?
5 | COCc1c(C#N)c(NCc2cc(OC)c(OC)c(OC)c2)nc(C)c1[N+](=O)[O-] | ? | -10% | -8% | 0% | / | ? | / | 14µM*
6 | O=C(CCS(=O)(=O)c1ccccc1)OCc1ccc([N+](=O)[O-])cc1 | ? | 0% | -3% | -7% | / | ? | / | -13%
7 | CCOC(=O)CSc1[nH]c(=O)cc(C)c1C#N | 7%[46.1 µM] | 8% | 2% | -2% | -1.3% | 1% | -2% | 2%
8 | COc1ccccc1[C@H]1C(c2cccc(Cl)c2)=NN(c2ccccc2)[C@@H]1CO | / | / | 3% | -71% | 0.4% | / | ? | ?
9 | CCn1c(N2CCN(S(=O)(=O)CC)CC2)nc2ccccc21 | 2%[46.1 µM] | -1% | 16% | 0% | / | ? | / | -2%
10 | Cc1ccc(C(=O)N2CCc3ccccc3C2)cc1S(=O)(=O)N1CCOCC1 | ? | -5% | -9% | -1% | / | -7% | / | -6%
11 | CC(C)Cn1c(N)c(C(=O)COC(=O)c2cccc(Cl)c2)c(=O)n(C)c1=O | ? | / | 3% | -1% | / | ? | / | -22%
12 | COc1ccc(NC(=O)CSC2=Nc3ccccc3C3=NC(CCC(=O)NCc4ccc(F)cc4)C(=O)N23)cc1Cl (stereo not drawn) | -1%[46.1 µM] | / | / | / | -4.0% | -12%[46.1 µM] | -5% | -16%
13 | CCC(CO)n1cnnc1-c1ccncc1 (stereo not drawn) | 15% | 5% | 5% | 7% | 5.1% | 1% | -5% | 2%
14 | COc1ccc(/C=C2\SC(=S)N(CC3CCCO3)C2=O)cc1 (stereo not drawn) | 10% | -1% | -15% | -2% | / | 5% | / | 41%[activator]
15 | CCN(CC)CCOC(=O)c1ccc(NC(=O)c2nn(-c3ccc(C)cc3)c(=O)c3c2c2ccccc2n3C)cc1 | ? | / | / | / | -20% | -6%[46.1 µM] | 4% | -11%
16 | Cc1cc(C)n2nc(-c3cccc(Br)c3)cc2n1 | 3%[46.1 µM] | -21% | -21% | 1% | / | ? | / | 24%
17 | CCc1cc(C(=O)N2CCCC(C(=O)c3cccc4ccccc34)C2)n(C)n1 (stereo not drawn) | ? | -2% | 4% | 0% | / | / | / | ?
18 | COc1ccccc1N(CC(=O)NC1CCCCC1)S(=O)(=O)c1ccccc1 | 13%[46.1 µM] | -4% | 3% | 9% | / | 9% | / | 11%
19 | Cc1ccc2c(c1)C1CN(C)CCC1N2C(=O)COc1ccc(N(C)S(=O)(=O)c2cccs2)cc1 (stereo not drawn) | ? | 8% | -13% | 1% | / | ? | / | 17%
20 | CCOc1ccc(N(CC(=O)NC2CCCCC2)C(=O)CCC(=O)Nc2nccs2)cc1 | 26%[46.1 µM] | 5% | -3% | 1% | / | / | / | 12%
21 | Cc1ccc(CSc2nnc(-c3ccco3)o2)cc1 | ? | -111% | 14% | -15% | -9.1% | -21% | -5% | 73%[activator]
22 | CCOC(=O)N1CCN(C(=O)Nc2sc3nc4n(c(=O)c3c2C)CCC(C)CC4)CC1 (stereo not drawn) | -2% | 5% | 0% | -2% | -4.0% | 5% | 15% | /
23 | Cc1cc(C(=O)Nc2ccc(N3CCCCC3)cc2)no1 | ? | -7% | -10% | 0% | / | 11µM* | / | -51%
24 | COc1cccc(C2NC(=O)NC(C)=C2C(=O)Nc2ccccc2C)c1 (stereo not drawn) | -5% | -11% | / | 1% | 5.4% | / | -7% | /
25 | O=C(CSc1nnnn1-c1ccc(Cl)cc1)NC(=O)Nc1ccc2c(c1)OCCO2 | 28% | -7% | -14% | -8% | -1.7% | 5% | 25µM* | /
26 | COC(=O)C1C/C(=N/NS(=O)(=O)c2ccc(C)cc2)CS1 (stereo not drawn) | -1%[46.1 µM] | -1% | 1% | -2% | / | 3%[46.1 µM] | / | 15%
27 | COc1ccc(N2CCN(Cc3nc4c(c(=O)n(C)c(=O)n4C)n3CC(C)=O)CC2)cc1 | -23% | 18% | -1% | 0% | 1.0% | 1% | -11% | ?
28 | O=C(/C=C/c1ccc(NC(=O)c2ccccc2-c2ccccc2C(=O)O)cc1)c1ccccc1 | / | ? | 1% | 7% | / | / | / | ?
29 | O=C(CSc1nnc(CN2CCOCC2)n1-c1ccccc1)N1CCc2ccccc21 | 3%&3% | -11% | 12% | 3% | 1.7% | -10% | ? | 0%
30 | CC(C)c1ccc(/C=N/NC(=O)C2CCCC2)cc1 | / | -23% | -2% | -9% | / | / | / | 38%[activator]

Another view of part of the listing above:
26	COC(=O)C1C/C(=N/NS(=O)(=O)c2ccc(C)cc2)CS1 (stereo not drawn)
  MARV entry inh = -1%[46.1 µM]
  NS1 inh = -1%
  RE007 growth inh = 1%
  SARS PLP yeast = -2%
  Cruzain Triton = /
  LASV entry inh = 3%[46.1 µM]
  Cruzain noTriton = /
  StopGo reporter = 15%
27	COc1ccc(N2CCN(Cc3nc4c(c(=O)n(C)c(=O)n4C)n3CC(C)=O)CC2)cc1
  MARV entry inh = -23%
  NS1 inh = 18%
  RE007 growth inh = -1%
  SARS PLP yeast = 0%
  Cruzain Triton = 1.0%
  LASV entry inh = 1%
  Cruzain noTriton = -11%
  StopGo reporter = ?

Following part:
No. | mol | MARV entry inh | NS1 inh | RE007 growth inh | SARS PLP yeast | Cruzain Triton | LASV entry inh | Cruzain noTriton | StopGo reporter
31 | CCOC(=O)c1ccc2c(c1)N(CC(=O)N1CCCCC1)C(=O)C(C)(C)O2 | -17% | -1% | -8% | 17% | 1.7% | 16% | 8% | -1%
32 | CC(C)Cn1c(SCC(=O)N(C)c2c(N)n(Cc3ccccc3)c(=O)[nH]c2=O)nc2ccccc21 | 13% | / | 23% | -3% | / | -12% | / | -17%
33 | COc1cccc(C(=O)C2CCCN(Cc3ccc(F)cc3)C2)c1 (stereo not drawn) | ? | -14% | -6% | -8% | / | -19%[46.1 µM] | / | -7%
34 | O=C(CSc1nnc(COc2ccc(Cl)cc2)o1)NC1CC2CCC1C2 (stereo not drawn) | ? | -2% | 6% | 1% | / | ? | / | -1%
35 | CCOC(=O)c1c(NC(=O)C2C3CCC(O3)C2C(=O)O)sc2c1CCCC2 (stereo not drawn) | 0%[46.1 µM] | / | -26% | -2% | / | 2% | / | -7%
36 | Cc1ccc(NC(=O)CSc2sc3c(O)cc(=O)[nH]c3c2C#N)cc1C | -8%[46.1 µM] | 21% | 6% | 2% | / | -3% | / | 4%
37 | O=C(N/N=C/C1=C(N2CCOCC2)C(=C\c2ccccc2)/CC1)Nc1ccccc1 | ? | 5% | -11% | 4% | -3.5% | -5% | -25% | -1%
38 | CC(C)NC(=O)CCS(=O)(=O)c1cccc2nonc12 | 23% | 13% | -23% | -1% | -7.9% | ? | -3% | -13%
39 | Cc1cc(O)c(C2=Nc3ccccc3SC(c3ccc(Cl)cc3)C2)c(=O)o1 (stereo not drawn) | ? | 4% | -13% | -8% | -5.3% | ? | -25% | -3%
40 | CCCCN(C)CCCNC(=O)C1CCC(CNS(=O)(=O)c2c(C)cc(C)cc2C)CC1 (stereo not drawn) | / | 0% | -1% | -1% | / | / | / | -14%
41 | CCOc1ccc2c3c(c(=O)oc2c1OCC)CCCC3 | -4% | -65% | ? | -6% | -3.2% | 11% | 3% | ?
42 | O=C(Nc1ccc(Cl)cc1C(=O)NCc1cccnc1)c1ccc(Cl)cc1Cl | ? | -21% | / | 10% | -4.9% | ? | -8% | -7%
43 | Cc1cc2oc(C(=O)Nc3ccc(S(=O)(=O)N4CCCCCC4)cc3)cc(=O)c2cc1C | 11%[46.1 µM] | / | / | / | -1.1% | 27%[46.1 µM] | -14% | 0%
44 | COc1ccc(C)cc1Nc1c2c(nc3nc(-c4cccs4)nn13)CCCC2 | / | / | / | / | 0.2% | 25%[46.1 µM] | -3% | -12%
45 | Cc1cc(=O)oc2cc(OCC(=O)Nc3c(C)n(C)n(-c4ccccc4)c3=O)c(Cl)cc12 | 17% | / | -4% | -5% | / | 5% | / | -19%
46 | ON1C2CCCCC2N(O)C1c1ccccc1 (stereo not drawn) | -24% | 2% | -1% | 4% | 2.5% | -6% | -17% | /
47 | O=C(Nc1ccccc1)Nc1nnc(SCC(=O)N2CCCCC2)s1 | / | / | / | / | -14% | ? | 2% | ?
48 | Cc1cccc(C)c1NC(=S)Nc1c(C)n(C)n(-c2ccccc2)c1=O | -9% | 15% | 22% | 18% | 1.1% | -4% | -6% | -10%

3 compounds drawn at random from those above, as already listed:
No. | mol | MARV entry inh | NS1 inh | RE007 growth inh | SARS PLP yeast | Cruzain Triton | LASV entry inh | Cruzain noTriton | StopGo reporter
36 | Cc1ccc(NC(=O)CSc2sc3c(O)cc(=O)[nH]c3c2C#N)cc1C | -8%[46.1 µM] | 21% | 6% | 2% | / | -3% | / | 4%
33 | COc1cccc(C(=O)C2CCCN(Cc3ccc(F)cc3)C2)c1 (stereo not drawn) | ? | -14% | -6% | -8% | / | -19%[46.1 µM] | / | -7%
26 | COC(=O)C1C/C(=N/NS(=O)(=O)c2ccc(C)cc2)CS1 (stereo not drawn) | -1%[46.1 µM] | -1% | 1% | -2% | / | 3%[46.1 µM] | / | 15%
